NPYLR7 agonist – agonists of mosquito NPYLR7 receptor, primary screen, cell-based, Aedes aegypti, calcium fluorescence, mosquito biting behavior | HEK293T NPYLR7/Galpha15, GCaMP6s calcium fluorescence | activation, % at 10 µM | 0.15% of 270,000 active | AID 1259423, 2018; in the data active means activation above about 40%;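 further: 0% = vehicle and 100% = reference agonist at the receptor; some compounds past the cut are filed as inactive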
NPYLR7 agonist max-min – second read-out of NPYLR7 agonist, no call of its own (marks repeat the call); activation, %; measured here: Max-Min RFU normalised activation; some inactives read as strong as hits;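 span of the calcium signal over five minutes; 0% = vehicle and 100% = native peptide agonist; compound fluorescence can raise it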
* = called active by the depositor; & = joins results of further samples. Not all compounds are listed, so the mix of outcomes need not match the whole.

Values run as follows: NPYLR7 agonist max-min | NPYLR7 agonist
COC(=O)c1ccc(NS(=O)(=O)c2cc(C(=O)OC)cc(C(=O)OC)c2)cc1
    15 | 3
O=C(c1ccccc1-c1ncc[nH]1)N1CCC(CO)(Cc2ccc(Cl)cc2)CC1
    3 | 17
Cc1c(C(=O)NC2=NCCS2)cnn1-c1ccc(Cl)cc1
    3 | 3
CC(=O)c1ccc(C(=O)N2CCc3c(cnc(C)c3CNC(=O)/C=C/c3ccccc3)C2)s1
    1 | 5
COc1cc(OC)cc(-n2c(CCC(=O)NCc3cccs3)cc3c2-c2ccccc2CC3)c1
    -4 | -2
COc1ccc2c(c1)CC(CNC(=O)c1ccco1)O2 (configuration not stated)
    6 | 6
COc1cn(CC(=O)NCc2ccc3c(c2)OCO3)c(CN2CCN(C(C)=O)CC2)cc1=O
    2 | 1
COC(=O)c1ccc(COC(CN2CCN(S(=O)(=O)c3cccc(C#N)c3)CC2)c2ccc(Cl)cc2)cc1 (configuration not stated)
    8 | -3
CC(C#N)CN(C)C(=O)C1CCCC(C(=O)N(C)CC(C)C#N)C1 (configuration not stated)
    -4 | -4
CC1C(=O)N(c2ccccc2Cl)CCN1C(=O)c1cccc(Cl)c1 (configuration not stated)
    -8 | -10
CCc1ccccc1NC(=O)N1CCC2(CC1)C(=O)N(CC(=O)N1CCN(C(C)=O)CC1)CN2c1ccccc1
    14 | 5
COc1ccc2[nH]c(=O)c(CN(C)C(C)c3ccccn3)cc2c1 (configuration not stated)
    8 | 14
CC(C)Cn1c(CN2CCC(N)(C(=O)O)C2)nc2ccccc21 (configuration not stated)
    13 | 17
CCCCN(CC(=O)N(CCc1c[nH]c2ccccc12)Cc1ccc(N(C)C)cc1)C(=O)C(C)(C)CCl
    17 | 21
COc1cc(NC(=O)CCC2CCCN(C(=O)CCn3ccnc3C)C2)cc(OC)c1 (configuration not stated)
    -3 | 1
Cc1nonc1CN(C)C(=O)CC(c1ccccc1)c1cccc(Cl)c1 (configuration not stated)
    4 | 5
O=C(NC1C2CC3CC(C2)CC1C3)C1CCCCC1 (configuration not stated)
    13 | 10
CCCC1CCCN(CC2(CO)COC2)CC1 (configuration not stated)
    -7 | -2
Cc1n[nH]c(C)c1CCNC(=O)c1ccc(CSc2ncccn2)o1
    6 | 10
CCc1nc2ccc(C(=O)N3CCN(C(=O)c4ccco4)CC3)cn2c1N(C)Cc1nccs1
    -7 | -5
COc1ccc(Br)c(C(=O)OC(C)C(=O)Nc2ccccc2F)c1 (configuration not stated)
    5 | 7
CCCNC(=O)CSc1nc2ccccc2c(=O)n1-c1cccc(Cl)c1
    -2 | -2
Clc1ccc(Cn2ncc3c(N4CCN(c5cccc(Cl)c5)CC4)ncnc32)cc1
    -4 | 0
COc1ccc(-c2c(NC(C)=O)n(-c3ccccc3)nc(C)c2=O)cc1
    0 | 1
CCCCSc1nc2c(c(=O)[nH]1)C(c1ccc(F)cc1)C(C(=O)OCC)C(C)=N2 (configuration not stated)
    0 | 2
Cc1cc(F)ccc1Oc1cc(N(C)C2CCCCC2)ncn1
    3 | -5
Cc1nc(C)c(C(=O)Nc2cc(F)cc(N3CCCC3)c2)s1
    -34 | -35
CC(NC(=O)Cc1ccc(F)cc1)c1ccccc1Cl (configuration not stated)
    5 | 8
O=S(=O)(c1ccc(F)cc1)N1CCN(Cn2[nH]c(-c3ccccc3)nc2=S)CC1
    5 | 10
COc1ccc(-c2ccc3c(N4CCOCC4)nc(N4C[C@@H](C)O[C@@H](C)C4)nc3n2)cc1CO
    -5 | -4

(listing goes on)
Values run as follows: NPYLR7 agonist max-min | NPYLR7 agonist
COc1cccc(CC(=O)N2C[C@H](Oc3ccccn3)[C@H]3C[C@@H]2Cc2c3n(C)c3ccccc23)c1
    19 | 9
Cc1ccc(C(O)=C(C#N)C(=O)C2CCCC(C(F)(F)F)C2)s1 (configuration not stated)
    18 | 23
COCC(=O)N(Cc1ccc(OC)c(OS(=O)(=O)C(C)C)c1)C1CC1
    3 | -3
O=C(C[n+]1cc(-c2ccccc2)n2c1CCC2)c1ccccc1
    -4 | -2
CCN1C[C@H]2[C@@H](C3CCN(C(C)C)CC3)N[C@](CO)(CC(C)C)[C@H]2C1
    -3 | 1
O=C(CSc1nc2[nH]ncc2c(=O)n1-c1ccccc1)Nc1cccc(C(F)(F)F)c1
    5 | 3
COCCNC(=O)c1ccc(CSc2nnc(-c3ccncc3)n2-c2cccc(C)c2)cc1
    -2 | -4
COC(=O)[C@@H]1C[C@@H](O)CN1C(=O)CCSCc1ccc(F)cc1
    12 | 24
CCSc1nc(NC(C)C)c2cnn(CCNC(=O)c3ccc4ccccc4c3)c2n1
    -4 | -3
O=C(NC1CCCc2ccccc21)c1cncn1-c1cccc(-c2cccc(OC(F)(F)F)c2)c1 (configuration not stated)
    -7 | 9
CN1CCC(N(C)C(=O)c2cc3cccnc3n(Cc3ccc(F)cc3)c2=O)CC1
    -1 | 1
O=C(CCc1cnccn1)N1CCOC(CCCc2ccccc2)C1 (configuration not stated)
    10 | 22
O=C(O)C1Cc2c([nH]c3ccccc23)C(c2coc3ccccc3c2=O)N1 (configuration not stated)
    1 | 3
CC(C)CC(N)C(=O)N(C)C1CCCCC1 (configuration not stated)
    2 | 1
Cc1ccc(-c2cc(C(=O)N3CCC(Cc4ccccc4)CC3)n(-c3ccc(Cl)cc3)n2)cc1C
    4 | -1
COc1cccc(-c2cn(Cc3nc(C)cc(C(F)(F)F)n3)nn2)c1OC
    0 | 1
O=c1c2ccccc2[nH]c2ccc(I)cc12
    5 | -4
CC1CCCN(Cc2nc3c(c(=O)n(C)c(=O)n3C)n2Cc2ccc(Cl)cc2)C1 (configuration not stated)
    1 | 8
CCc1c(Cl)nc(-c2ccccc2)nc1N1CCC(CS(N)(=O)=O)CC1
    26 | 3
COCCn1cc(C(=O)N2CCN(C)CC2)c2nn(-c3ccccc3)c(=O)c-2c1
    2 | 4
CS(=O)(=O)Nc1ccc(NC(=O)c2nc(N3CCCC3)ncc2Cl)cc1
    3 | 7
COc1ccc(OC)c(C2CCCN2S(=O)(=O)c2c(C)noc2C)c1 (configuration not stated)
    9 | -1
COCCNC(=O)C1(C)CCN1C(=O)c1cccc(F)c1 (configuration not stated)
    1 | 3
COCCNC(=O)c1cc(Br)c(Br)s1
    -3 | 0
Cc1ccc(Nc2nc(N3CCN(c4cccc(Cl)c4)CC3)nc3nccnc23)cc1
    11 | 5
FC(F)(F)CNc1ccncc1
    -3 | 2
O=C1COc2ccc(-c3csc(-c4ccc(F)cc4)n3)cc2N1
    6 | 4
COc1ccc2c(c1)OCC(C(=O)OCc1nccn1CC(F)(F)F)C2 (configuration not stated)
    -10 | -2
COC(=O)CC(=O)N1CCC(n2c(=O)oc3ccc(C)cc32)CC1
    -6 | -13
COc1cccc(NC(=O)CCC2CCN(C(=O)CCc3cn[nH]c3)CC2)c1
    4 | 6

(list continues)
Values run as follows: NPYLR7 agonist max-min | NPYLR7 agonist
COc1ccc(C(=O)NCCc2nnc3ccc(SCC(=O)N4CCc5ccccc54)nn23)cc1
    -5 | 8
N#Cc1c(F)cccc1NCCS(=O)(=O)N1CCc2ccccc21
    0 | 2
O=C(CCc1ccccc1)OCCN1CCCC1=O
    8 | 8
CCOc1ccc(-c2ccnc(N3CCN(S(=O)(=O)c4ccc(C)cc4OC)CC3)n2)cc1
    2 | 4
O=C(CCc1ccc2c(c1)OCO2)NC1CCSc2ccc(F)cc21 (configuration not stated)
    -6 | -7
CCOC(=O)c1cnc2c(C#N)cccc2c1Nc1cccc(C)c1
    2 | 4
COc1ccccc1-c1cc(C(=O)N(C)CC2CCN(CCc3ccc(F)cc3)CC2)[nH]n1
    -3 | 7
C=CCC(CC(=O)O)C(=O)N(C)CC1OCCO1 (configuration not stated)
    -10 | -9
CC(NC(=O)c1cc(-c2ccco2)nn1-c1ccc([N+](=O)[O-])cc1)c1ccccc1 (configuration not stated)
    29 | 24
CCN1CCN(c2c(CN(CCOC)C(=O)c3ccc(Cl)cc3)c(C)nn2-c2ccccc2)CC1
    -1 | -2
CC(C)(C)NC(=O)C1(C)CCN1Cc1ccc(-c2ccccn2)cc1 (configuration not stated)
    4 | 9
Clc1ccccc1OCc1nncn1-c1cccnc1
    -6 | -3
Clc1ccc(-c2csc3ncnc(N4CCN(CCOc5ccccc5)CC4)c23)cc1
    7 | 9
O=C(CSC(F)(F)F)Nc1cnn(-c2ccccc2)c1
    3 | 8
Cc1nc2c(=O)n(CC(=O)NCc3ccc(F)cc3)nc(-c3ccc(F)cc3)c2s1
    -3 | 0
Cc1noc(C)c1CNC(C)c1ccc(Br)cc1 (configuration not stated)
    -23 | -25
CN(Cc1ccc(-n2cccn2)cc1)CC1CCC(N)CC1 (configuration not stated)
    -2 | 1
COC(=O)CSc1nc2nc(-c3ccccc3)cc(=O)n2[nH]1
    -20 | -13
Oc1ccc(-c2csc(=NC3CC3)n2N=C2CCCC2)cc1
    0 | 0
Cc1ccc(OC(C)C(=O)O)c(Br)c1 (configuration not stated)
    -3 | -2
CC1(C(=O)NS(=O)(=O)c2cccc(C#N)c2)CCN1C(=O)c1cccc2ccccc12 (configuration not stated)
    4 | 4
CCNC(=O)c1c(C)nn(-c2ccc(Cl)cc2)c1C(C)C
    -4 | -10
CCCNC(=O)n1nc(N2CCCC2)c(C#N)c1N
    9&-5 | 7&-3
Cc1cccc(-n2nc(C3CC3)c(C(=O)O)c2C)c1
    -1 | -4
CCOC(=O)N(C)c1c(CC)nc2ccc(C(=O)NCCC(C)C)cn12
    10 | 17
CCn1c(=O)c2c(nc3n2CCCN3c2ccc(Br)cc2)n(C)c1=O
    2 | 1
COc1ccsc1C(=O)Nc1cccc(N2CCCC2=O)c1C
    -3 | -4
CCCCNC(=O)C1(C)CCCCN1C(=O)c1cc(-c2cccs2)oc1C (configuration not stated)
    1 | 2
CCc1nc2c(OCCc3cccc(OC)c3)cccn2c1N(C=O)Cc1ccccc1
    -9 | -6
CC(NC(=O)Cc1ccc(N2CCNC2=O)cc1)c1ccc(O)c(F)c1 (configuration not stated)
    1 | 4

A stretch from further up, as a working copy:
Values run as follows: NPYLR7 agonist max-min | NPYLR7 agonist
CC(C)(C)NC(=O)C1(C)CCN1Cc1ccc(-c2ccccn2)cc1 (configuration not stated)
    4 | 9
Clc1ccccc1OCc1nncn1-c1cccnc1
    -6 | -3
Clc1ccc(-c2csc3ncnc(N4CCN(CCOc5ccccc5)CC4)c23)cc1
    7 | 9
O=C(CSC(F)(F)F)Nc1cnn(-c2ccccc2)c1
    3 | 8
Cc1nc2c(=O)n(CC(=O)NCc3ccc(F)cc3)nc(-c3ccc(F)cc3)c2s1
    -3 | 0
Cc1noc(C)c1CNC(C)c1ccc(Br)cc1 (configuration not stated)
    -23 | -25
CN(Cc1ccc(-n2cccn2)cc1)CC1CCC(N)CC1 (configuration not stated)
    -2 | 1
COC(=O)CSc1nc2nc(-c3ccccc3)cc(=O)n2[nH]1
    -20 | -13
Oc1ccc(-c2csc(=NC3CC3)n2N=C2CCCC2)cc1
    0 | 0
Cc1ccc(OC(C)C(=O)O)c(Br)c1 (configuration not stated)
    -3 | -2
CC1(C(=O)NS(=O)(=O)c2cccc(C#N)c2)CCN1C(=O)c1cccc2ccccc12 (configuration not stated)
    4 | 4
CCNC(=O)c1c(C)nn(-c2ccc(Cl)cc2)c1C(C)C
    -4 | -10
CCCNC(=O)n1nc(N2CCCC2)c(C#N)c1N
    9&-5 | 7&-3
Cc1cccc(-n2nc(C3CC3)c(C(=O)O)c2C)c1
    -1 | -4
CCOC(=O)N(C)c1c(CC)nc2ccc(C(=O)NCCC(C)C)cn12
    10 | 17

Going on with the list.
Values run as follows: NPYLR7 agonist max-min | NPYLR7 agonist
Cc1ccc2nc(SCc3nc4ccccc4[nH]3)[nH]c2c1
    -23 | -18
O=C(COc1ccc(Nc2ccccc2)cc1)N1CCOCC1
    6 | 10
NS(=O)(=O)c1ccc(CCNC(=O)CCCn2nc(-c3ccccc3)ccc2=O)cc1
    11 | 10
Cc1ccccc1C(=O)N1C(C(=O)O)COC12CCCCC2 (configuration not stated)
    9 | 5
Cc1cccc(-c2ncc(CN(C)CC3(CO)CC3)cn2)c1
    -8 | -3
CCc1c(C)c(C(=O)NCCc2ccc(OC)c(OC)c2)n(Cc2ccccc2F)c1C
    0 | -11
O=C(OCC(O)C(O)C(F)(F)F)c1ccccc1 (configuration not stated)
    3 | 5
Brc1ccc(-c2cnc3ccccc3n2)cc1
    -2 | 1
CCNC(=O)CN(CC)Cc1csc(-c2ccc(Cl)cc2)n1
    -2 | 0
O=C(Nc1ccccc1Cl)c1ccccn1
    24 | 13
O=C1COc2ccc(NC(=O)C34CC5CC(C3)CC(c3ccccc3)(C5)C4)cc2N1
    -6 | -4
FC(F)(F)c1cccc(NC(=S)NCCN2CCCCC2)c1
    -13 | -6
Cc1c(C)c2cc(CN3CCCCC3)c(O)c(C)c2oc1=O
    9 | 11
C=CC[C@@H]1CC=C[C@@H](C)N1C(=O)CCc1nnc(Cc2c[nH]c3ccccc23)o1
    1 | 3
O=C(CCCCc1ccccc1)N1CCc2c(nc(-c3ccncc3)[nH]c2=O)C1
    0 | 0
Cc1cc(C)c(C(=O)N2CCCC(N(C)Cc3ccccc3)C2)o1 (configuration not stated)
    -10 | -7
